Screens deposited in PubChem by National Center for Advancing Translational Sciences (NCATS).
TRPV1 potentiator: potentiators of human vanilloid receptor 1 (TRPV1) | AID 540277 | Q8NER1 | potentiation, % at 8.33 µM | TRPV1-expressing cells, Fluo-8 calcium influx, capsaicin EC20 potentiation; host cell line not named in the record; control for the full effect not named in the record | 0.02% of 320,000 active; active means potentiation above 80%; inconclusive means 30% to 80%; inactive means below 30%; further: 0% is about no effect
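TRPV1-expressing cells were cultured overnight at 35.5C and loaded with Fluo-8 calcium dye for 40 to 90 min at room temperature. After a 10 s baseline, compound was added and calcium influx was read kinetically for 3 min (ex 480/em 520 nm).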
ClpP mod: qHTS Assay for Activators of ClpP; Potency, µM (top dose mostly 57.5 µM), for inactives: at the top dose activity change, negative = active; ATP-dependent Clp protease proteolytic subunit (Bacillus subtilis (strain 168)), P80244; 1.9% of 340,000 active; AID 651965, 2013; purified B. subtilis ClpP, FRET peptide cleavage, 20 min; active = well fitted falling curve with a large enough effect; inconclusive = small, poorly fitted or top-dose-only effect; inactive = no such curve, though single readings can be large or run the other way; further: potency means the concentration at half of the fitted maximal effect; the source files actives as falling curves though it sought activators and does not explain the sign; nearly all actives have a fitted effect of over 65% in size; many hits overshoot -100%
Target sequence (P80244 whole entry, looked up): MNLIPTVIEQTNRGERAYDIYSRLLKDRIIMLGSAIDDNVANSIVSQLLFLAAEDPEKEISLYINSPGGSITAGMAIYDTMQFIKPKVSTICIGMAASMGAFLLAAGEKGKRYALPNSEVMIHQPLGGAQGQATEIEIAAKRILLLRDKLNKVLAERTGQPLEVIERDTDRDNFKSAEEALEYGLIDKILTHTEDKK
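Purified B. subtilis ClpP, 10 microg/mL final in Tris/HCl pH8 with KCl, BSA, glycerol and Tween-20, cleaved an Abz/nitrotyrosine-quenched decapeptide. Fluorescence (ex 320, em 430) was read at 0 and 20 min at room temperature. Delta was normalized to 5.8 microM ADEP and DMSO/no-enzyme controls.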
D2 PAM: positive allosteric modulators of human D2 dopamine receptor; P14416; 0.23% of 360,000 active; AID 624464; DiscoveRx D2 beta-arrestin cells, luminescence, 90 min; 100% = 57 uM dopamine signal; potentiation, % (concentration not given with the values); active = potentiation of 50% or more; inconclusive = 30% to 50%; inactive = 30% or less;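 further: compound concentration not given in the record; tested on top of an EC20 dose of dopamine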
Target sequence (P14416 whole entry, looked up): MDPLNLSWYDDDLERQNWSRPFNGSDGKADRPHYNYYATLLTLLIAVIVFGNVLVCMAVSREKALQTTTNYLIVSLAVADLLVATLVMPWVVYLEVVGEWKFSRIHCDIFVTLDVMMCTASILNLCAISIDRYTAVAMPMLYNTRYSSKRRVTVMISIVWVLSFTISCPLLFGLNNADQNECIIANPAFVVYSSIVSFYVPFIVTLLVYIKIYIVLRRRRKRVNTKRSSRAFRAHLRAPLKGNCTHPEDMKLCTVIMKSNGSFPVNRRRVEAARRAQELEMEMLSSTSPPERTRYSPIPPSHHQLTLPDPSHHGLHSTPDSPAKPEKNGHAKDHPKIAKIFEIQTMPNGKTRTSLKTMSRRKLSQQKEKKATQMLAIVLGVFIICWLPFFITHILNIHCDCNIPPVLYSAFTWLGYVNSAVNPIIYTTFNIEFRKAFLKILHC
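PathHunter beta-arrestin assay in DiscoveRx D2 cells. Compounds were added with an EC20 of dopamine (50 nM final) for 90 min at 37 deg C. Luminescence was read 1 h after detection reagent, with 57 uM dopamine as the EC100 control.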
Menin-MLL FL inh: displaces fluorescein MLL peptide from human menin. AID 1766. FP activity change, % at 61.4 µM. Fluorescence polarization, fluorescein-MLL peptide displacement from menin. 290,000 tested, under 10 active; inconclusive = falling polarisation curve, or a change in total fluorescence; inactive = total fluorescence flat and polarisation flat or rising; no compound was filed as active; the % refers to the polarisation; negative = inhibition;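 further: % of control where 0% means no effect; inhibitors lower the polarisation; unlabelled MLL peptide was the positive control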
gsp antagonist: antagonists of gsp mutant (McCune-Albright syndrome) | gsp-mutant cells, cAMP HTRF, 30 min; control for the full effect not named in the record | Potency, µM (doses to about 76.9 µM), without a hit: at the highest dose activity change, negative = inhibition, usual class: inhibitors | 0.4% of 340,000 active; active = falling curve of any shape with a large fitted effect; inconclusive = falling curve, mostly with a smaller effect; inactive = flat or rising curve; cell line not stated here;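 further: intracellular cAMP measured with PDE inhibitor Ro 20-1724 present during compound exposure; potency means the concentration at half of the fitted maximal effect; on the % scale 0 is the no-effect control and ±100 the full control effect; nearly all actives have a fitted effect of over 65% in size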
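HTRF cAMP measurement after 30 min RT detection following 30 min, 37C compound treatment alongside […] (added as 300 uM solution) in G418-selected cells seeded at 2000/well and grown 16–24 h.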
Sfp inh: inhibitors of Bacillus subtilis Sfp phosphopantetheinyl transferase | Biochemical Sfp PPTase activity, qHTS | Potency, µM, for the others: max response, negative = inhibition, most hits filed as inhibitors | 3.5% of 310,000 active; active means well fitted inhibition curve with a large enough effect; inconclusive means small, poorly fitted or top-dose-only effect, or another doubt; inactive means no such curve, though single readings can be large or run the other way;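 further: the enzyme is Sfp with the accession as filed and its product quenches rhodamine fluorescence; potency means the concentration at half of the fitted maximal effect; 0% = enzyme reaction without inhibitor and -100% = no enzyme wells; top concentration of the series not given in the record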
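After 15 min at room temperature with compound, 15 nM Sfp received 5 uM rhodamine-CoA plus 12.5 uM BHQ-2-ybbR (50 mM Hepes pH 7.6, 10 mM MgCl2). Rate came from the fluorescence difference over 30 min, ex 525/em 598 nm.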
gsp agonist: activates gsp, the McCune-Albright syndrome mutation | gsp mutant cells, cAMP HTRF, 30 min; control for the full effect not named in the record | 0.13% of 340,000 active | Potency, µM (doses to about 76.9 µM), for the others: at the highest dose activation (cAMP increase), hits mostly activators; active = well fitted activation curve with a large enough effect; inconclusive = small, poorly fitted or top-dose-only effect, or another doubt; inactive = no such curve, though single readings can be large or run the other way; cell line not stated here;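 further: phosphodiesterase inhibitor Ro 20-1724 added with compounds to block cAMP breakdown; potency means the concentration at half of the fitted maximal effect; nearly all actives have a fitted effect of over 60% in size; about a fifth of the inactives were tested at one dose only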
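Cells in DMEM/10% FBS with G418 were pretreated with compounds in DMSO plus […] (300 uM stock) for 30 min at 37C. cAMP was measured by HTRF (cAMP-d2 plus anti-cAMP antibody-K) after 30 min at room temperature.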
* = called active by the depositor; ? = inconclusive; nt = no result given; & = joins results of further samples; [ ] = remark or other dose.

SMILES	TRPV1 potentiator	ClpP mod	D2 PAM	Menin-MLL FL inh	gsp antagonist	Sfp inh	gsp agonist
O=C(CSc1nnnn1-c1ccc(Cl)cc1)NNC(=O)c1ccc([N+](=O)[O-])cc1	4	1.1%	-5	2.7	10%	23%	?
CCn1c(SCC(=O)Nc2cccc(OC)c2)nc2c(c1=O)SCC2	-8	-5.0%	13	nt	-8%	nt	-1%
COc1ccccc1N1CCN(C(=O)CSc2nc3ccccc3[nH]2)CC1	1	-1.2%	-6	4.9	-2%	10%	19%
Cc1ccc(NC(=O)CCC(=O)OC(C(=O)c2ccc(C)c(C)c2)c2ccccc2)c(C)c1 (stereo not given)	5	1.7%	-20	3.5	?	17%	?
O=C(CSc1nnc(-c2cccnc2)n1-c1ccccc1)N1CCN(c2ccc(F)cc2)CC1	0	3.1%	-24	0.8	-6%	-7%	-18%
Cc1nc2ccc(N)nc2nc1C	nt	?	5	nt	11%	nt	-9%
COc1cc(N)c(Cl)cc1C(=O)OCC(=O)N1c2ccccc2NC(=O)C1(C)C	nt	nt	-7	nt	-10%	nt	?
Cc1ccccc1OCCn1cc(/C=C(\C#N)C(=O)NCc2ccco2)c2ccccc21	12	-2.1%	-21	-1.7	3%	14%	?
Cc1cccc(C)c1NC(=O)c1cccc(COc2cc(Cl)ccc2Cl)c1	-7	-2.4%	1	1.9	-5%	-3%	7%
CCNC(=O)CC1SC(=Nc2ccc(C)cc2)NC1=O (stereo not given)	-2	-0.6%	-8	-0.7	3%	-13%	8%
COc1ccc(CNC(=O)[C@@H]2CC=C[C@@H]3CCN(Cc4ccc(Cl)c(Cl)c4)C(=O)[C@@H]32)cc1	nt	0.8%&-0.3%	-9	nt	?	nt	?
COC(=O)[C@@H](Cc1c[nH]c2ccccc12)NC(=O)CNC(=O)c1ccccc1OC	2	nt	0	2.7	-5%	15%	-6%[15.4 µM]
O=C(O)c1cc(C(F)(F)F)nc2ccccc12	13	1.8%	-2	-4.3&-7.8	5%	21%&6%	-30%
Cc1cccc(-c2nnc(SCc3ccccc3)o2)c1	-6	1.9%	-16	5.4	-9%	-12%	-11%
CCOC(=O)N1CCN(C(=O)CN(c2cccc(C)c2)S(=O)(=O)c2ccccc2)CC1	1	-1.5%	2	1.6	-7%	14%	?
O=C(Nc1cccc(Br)c1)c1cccc(OC(=S)N2CCOCC2)c1	19	-2.9%	0	nt	?	11%	-54%[15.4 µM]
Cc1ccc(C)c(OCCn2c(=O)c3c(ncn3C3CCCC3)n(Cc3ccccc3)c2=O)c1	?	0.0%	1	-2.8	-5%	-8%	-102%[inhibitor]
CCC(C)(C)c1ccc(OCCCC[n+]2cccc(C)c2)c(C(C)(C)CC)c1	-5	nt	-8	0.2	-2%	32µM*	11%[15.4 µM]
CCOc1ccc(-c2nnc3ccc(SCC(=O)Nc4cc(C)on4)nn23)cc1	-3	0.6%	-3	-4.1	-1%	10%	?
COC(=O)COc1cc(=O)oc2ccc(NS(=O)(=O)c3ccccc3)cc12	-12	-5.0%	-2	-0.8	-3%	3%	?
Cc1ccc(NC(=S)NC2CCN(Cc3ccccc3)CC2)cc1	-3	-1.4%	-34	4.2	9%	6%	17%[15.4 µM]
CNC[C@H]1OCc2ccccc2-c2ccccc2C(=O)N([C@H](C)CO)C[C@H]1C	nt	-4.5%	1	nt	nt	nt	24%
Cc1ccc(CNC(=O)C2CCC(=O)N(CCc3cccc(F)c3)C2)cc1 (stereo not given)	-4	-2.7%	20	nt	-2%	4%	-17%
Cc1cc(C)c(S(=O)(=O)N2CCCOC2CNC(=O)C(=O)NCc2cccs2)c(C)c1 (stereo not given)	2	-0.2%	-8	-1.8	9%	-9%	-15%
CC(C)CNC(=O)c1oc2ccccc2c1COc1ccccc1	5	nt	-3	-0.4	-20%	-3%	-2%
Cc1ccc(NC(=O)c2ccc3c(c2)OCCO3)nc1	-26	0.9%	-4	nt	8%	nt	-58%[inhibitor]
Cc1onc(-c2ccccc2)c1CNS(=O)(=O)c1ccc(F)cc1F	?	2.1%	13	-1.0	2%	8%	-1%
CCOC(=O)c1sc(NC(=O)C2CSC3(C)CCC(=O)N23)nc1C (stereo not given)	22	-2.8%	-1	nt	0%	nt	2%
O=C1c2ccsc2SCCN1Cc1c(Cl)cccc1Cl	0	-1.2%	-1	5.6	-27%	-7%	-26%
CC(C)OC(=O)c1cccc(NC(=O)c2ccccc2)c1	-14	0.2%	-10	1.5	?	8%	22%
COc1ccccc1-c1ccc(SCC(=O)N2CCOCC2)nn1	-3	-13%	-5	0.5	0%	15%	-1%[15.4 µM]
CCOc1ccc(NC(=O)CSc2nccn2Cc2ccco2)cc1	-5	-1.6%&1.3%	3	-1.6	-5%	11%	-5%
CCN(CCCNC(=O)C1CCCN(S(=O)(=O)CC)C1)c1cccc(C)c1 (stereo not given)	21	-4.0%	0	-1.1	-2%	-12%	-1%
Cc1ccc(S(C)(=O)=O)cc1C(=O)OCC(=O)N1CCCC1=O	-2	-2.4%	-5	nt	1%	nt	3%[15.4 µM]
CCOC(=O)c1[nH]c(C)c(C(=O)OCC(=O)N(CC)C2CCS(=O)(=O)C2)c1C (stereo not given)	3	-6.8%	16	-2.7	7%	11%	-27%
CC(=O)CC1OC(=O)C(Br)=C1NCc1ccccc1 (stereo not given)	9	2.2%	-13	7.5	5%	-10%	10%
COc1ccccc1-c1nnc(SCC(=O)OC(C)C)o1	-12	-4.7%	3	-1.1	-8%	-6%	1%
O=C(O)CC1(CC(=O)Nc2ccc3ccccc3n2)CCCCC1	13	nt	-6	-2.0	-19%	11%	8%[15.4 µM]
CCOC(=O)CN1C(=O)C(Sc2n[nH]c(-c3ccc(O)cc3)n2)CCc2ccccc21 (stereo not given)	10	-6.1%	-24	-1.7	-8%	-12%	28%
Cc1ccc(CS(=O)(=O)CC(C)(O)c2ccc(Cl)cc2)cc1 (stereo not given)	-13	nt	-3	-11	3%	0%	19%
O=C(O)C1Cc2c([nH]c3ccccc23)C(c2ccc3c(c2)OCO3)N1 (stereo not given)	-13	-7.9%	-14	3.7	3%	-9%	0%
O=C1C(=O)N(CCO)C(c2ccc(Br)cc2)/C1=C(\O)c1ccccc1 (stereo not given)	-1	-2.0%	-11	-0.7	-13%	5%	8%
CCOC1OC(=O)C(Cl)=C1Nc1cc(C)ccc1C (stereo not given)	-22	nt	-9	-1.1	2%	13%	-4%[15.4 µM]
COc1ccc(Br)cc1CN(C)CC(=O)Nc1cccc(S(N)(=O)=O)c1	4	nt	-11	-1.1	-4%	13%	-4%[15.4 µM]
COC(=O)c1ccccc1NC(=O)C(=O)NCC1CCCO1 (stereo not given)	3	-1.7%	-12	2.3	8%	10%	-22%
CN(C)c1cccc2c(S(=O)(=O)Nc3ccccn3)cccc12	27	-7.9%	54*	3.8	-10%	3%	6%
O=C(N/N=C/c1ccc(F)cc1)c1cc(-c2ccco2)nc2ccccc12	20	?	-23	?	20%	?	-44%[inhibitor]
COc1cccc(-n2nnc3c(=O)n(CC(=O)N4CCC(Cc5ccccc5)CC4)cnc32)c1	24	-2.8%	-36	-5.4	-4%	-2%	-29%
Cc1ccc(S(=O)(=O)N2CCCCC2C(=O)NCc2ccco2)cc1 (stereo not given)	-14	-3.8%	-1	2.2	-10%	56µM*	-3%
CCc1nnc(NC(=O)CCC(=O)NC2CCCCCCC2)s1	-4	0.6%	-9	nt	1%	4%	-49%[inhibitor]
Cc1ccc(S(=O)(=O)NCCc2cc3ccc(C)cc3[nH]c2=O)cc1	2	nt	-6	3.5	-6%	6%	10%
O=S(=O)(NC1CC1)c1cccc(S(=O)(=O)N2CCCC2)c1	-20	-2.8%	6	1.5	-8%	9%	-8%
CC(C)(C)C(=O)N1CCN(C(=O)c2ccco2)CC1	8	nt	3	0.1	3%	2%	-13%[15.4 µM]
CCn1cc(C(=O)OCc2cccc(Br)c2)c(=O)c2ccc(C)nc21	13	-2.4%	-10	1.5	4%	-11%	?
COc1ccccc1/C=C/C(=O)OCC(=O)NC1CCS(=O)(=O)C1 (stereo not given)	nt	1.9%	-6	nt	5%	nt	0%[15.4 µM]
Cn1c(CNC(=O)CNC(=O)c2ccccc2F)cc(=O)n(C)c1=O	-3	-0.7%	0	2.6	4%	10%	-19%
Cn1c(CCNC(=O)c2ccccc2)nc2cc(NC(=O)C3CCCCC3)ccc21	1	4.0%	0	-2.8	4%	7%	38%
CCOC(=O)N1CCN(S(=O)(=O)c2cc(Br)cc3c2N(C(=O)C2CC2)CC3)CC1	2	0.1%	1	-0.2	-29%	-4%	-2%
c1ccc2cc(C3CCCCC3)ncc2c1	nt	-3.0%	-14	nt	-8%	nt	nt
COc1ccc(NC(=O)[C@@H](NC(N)=O)C(C)C)cc1Cl	4	-1.3%	-5	0.7	-1%	10%	-49%[inhibitor]
Continuation.
SMILES	TRPV1 potentiator	ClpP mod	D2 PAM	Menin-MLL FL inh	gsp antagonist	Sfp inh	gsp agonist
Cc1ccc(C)c(S(=O)(=O)N2CCN(c3ncnc4sccc34)CC2)c1	nt	-1.9%	-1	nt	?	nt	-35%[15.4 µM]
COc1ccc(S(=O)(=O)N2CCC(C(=O)Nc3ccccc3C)CC2)c2cccnc12	10	2.8%	-9	7.4	-18%	3%	15%
O=C(NCCc1nc(-c2ccccc2Cl)no1)c1ccccc1	nt	-1.0%	-4	nt	4%	nt	0%
Cc1ccc(-c2nc(CS(=O)CC(=O)NC3CC3)c(C)o2)cc1 (stereo not given)	8	?	-6	nt	-27%	0%	-11%
Cc1ccc(N(C(C)C(=O)Nc2cccc(N(C)S(C)(=O)=O)c2)S(C)(=O)=O)cc1 (stereo not given)	0	nt	-8	-0.3	-4%	13%	33%[15.4 µM]
Cc1cc(SCC(=O)Nc2ccc(O)cc2)n2nc(C)c(-c3ccccc3)c2n1	-8	nt	4	2.1	-10%	7%	-7%[15.4 µM]
